PABP polyA inh: PABP-poly(A) binding inhibition; P11940; PABP-poly(A) RNA binding, fluorescence polarization; inhibition, % at 35 µM; actives 1% (n = 290,000);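 active = 50% or more with normal probe brightness, or confirmed in later tests; about a fifth of its hits are not listed in these tables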;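 note: calls also rest on retests at 20 µM and on dose response follow-up; controls were probe without protein and protein plus probe with vehicle; some compounds called inactive have numbers as strong as hits; many hits fall short of the cut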
Target sequence (P11940 whole entry, looked up): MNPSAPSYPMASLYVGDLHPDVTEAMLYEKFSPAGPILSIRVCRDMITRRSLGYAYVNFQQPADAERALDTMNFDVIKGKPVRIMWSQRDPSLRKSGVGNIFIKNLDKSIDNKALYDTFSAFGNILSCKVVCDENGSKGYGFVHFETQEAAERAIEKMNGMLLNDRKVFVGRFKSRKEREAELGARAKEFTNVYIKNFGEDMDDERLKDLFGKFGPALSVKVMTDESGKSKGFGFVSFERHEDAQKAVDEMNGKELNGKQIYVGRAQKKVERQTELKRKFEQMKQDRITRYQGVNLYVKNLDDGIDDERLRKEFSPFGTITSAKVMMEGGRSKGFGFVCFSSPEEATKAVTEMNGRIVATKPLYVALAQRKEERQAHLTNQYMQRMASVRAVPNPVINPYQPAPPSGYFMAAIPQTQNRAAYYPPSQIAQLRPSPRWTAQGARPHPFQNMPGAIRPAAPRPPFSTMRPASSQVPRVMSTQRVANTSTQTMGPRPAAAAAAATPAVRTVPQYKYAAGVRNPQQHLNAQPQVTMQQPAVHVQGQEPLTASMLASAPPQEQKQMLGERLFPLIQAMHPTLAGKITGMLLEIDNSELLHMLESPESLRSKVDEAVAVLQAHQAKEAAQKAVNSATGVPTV
eIF4H FP inh: inhibitors of RNA binding by human eIF4H | Q15056 | AID 2012 | eIF4H fluorescence polarization binding assay | inhibition, % at 35 µM | actives 0.94% (n = 290,000);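 active = 50% or more with normal probe brightness, or confirmed in later tests; about a fifth of its hits are not listed in these tables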;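 note: calls also rest on retests at 20 µM and on dose response follow-up; 0% = protein and probe with vehicle and 100% = probe without protein; strong numbers were not always called active; many hits fall short of the cut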
Rce1 inh: blocks yeast Ras-converting enzyme | actives 0.27% (n = 290,000) | Q03530 | AID 2563 | calls only | yeast membranes, quenched prenylated peptide cleavage fluorescence;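 active = fall in fluorescence gain of 50% or more versus controls, with final raw signal at or below 3038400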;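 note: plate controls were neutral control wells for no effect and wells lacking membranes for full effect; tested at 10 µM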
Target sequence (Q03530 whole entry, looked up): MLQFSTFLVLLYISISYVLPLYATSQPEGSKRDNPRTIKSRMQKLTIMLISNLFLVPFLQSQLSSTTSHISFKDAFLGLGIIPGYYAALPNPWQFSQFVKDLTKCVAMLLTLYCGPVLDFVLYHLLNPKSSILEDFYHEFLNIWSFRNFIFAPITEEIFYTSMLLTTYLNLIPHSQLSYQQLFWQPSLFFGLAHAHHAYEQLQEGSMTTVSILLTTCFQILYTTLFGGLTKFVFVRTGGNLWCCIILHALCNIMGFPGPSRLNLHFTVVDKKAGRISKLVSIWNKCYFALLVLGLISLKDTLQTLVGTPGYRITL
CSC inhib: blocks cancer stem cells. cancer stem cell-like cells viability, luminescence. inhibition, % at 7.5 µM. actives 1.1% (n = 300,000). AID 2717;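 active = mean at 75% or more and at least half the replicates too; tested in HMLE shEcad cells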;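 note: 0% = median of negative and 100% = median of positive control wells; the first replicate is given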
HIV Env fusion: HIV envelope-mediated fusion inhibition; HeLa-JRFL Env/CEM21 cell fusion, luciferase; inhibition, % at 12.3 µM; actives 1.1% (n = 360,000);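 active = mean replicate inhibition score of at least 50 and every replicate individually at or above 50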;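 note: 0% = plate neutral controls and 100% = maraviroc near 300 nM; one replicate is shown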
MT1-MMP act inh: inhibitors of human MT1-MMP activation. P50281. HT1080 RFP-PRO-GFP cells, GFP/RFP ratio fluorescence, overnight; percent of plate control window, DMSO zero. GFP/RFP ratio change, % at 20 µM. actives 0.061% (n = 360,000). AID 651647;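 active = GFP/RFP ratio change of at least 30% with cell ATP level not reduced by more than half and red fluorescence within 50% of control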; note: strong numbers were not always called active
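Assay system: HT1080 RFP-PRO-GFP cells | Dosing: 20 µM single dose, 1% DMSO | Incubation: Cells overnight before dosing, compound overnight, 37 °C, 5% CO2 | Evaluation: GFP/RFP fluorescence ratio | Control set: DMSO-only wells and HT1080 RFP-L50D-GFP cell wells as references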
UUG fidelity: yeast start codon fidelity modulation | S. cerevisiae UUG-firefly luciferase reporter, luminescence/redox ratio | activity score, % at 18.7 µM | actives 0.13% (n = 350,000);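 active = replicate mean at a twofold rise or more, about +100% in these data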;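 note: firefly luciferase made from a UUG start codon reports start codon fidelity; reporter light over untreated wells divided by growth signal over untreated wells; some hits fall short of that in this replicate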
eIF4H FP inh retest: recorded beside eIF4H FP inh, whose call it bears; inhibition, %; compound at 20 µM; confirmation average;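 mean of two retest wells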
PABP polyA inh retest: further read-out of PABP polyA inh, marked with its call; inhibition, %; compound at 20 µM; confirmation repeats;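 mean of two retest wells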
MT1-MMP act inh RFP: also measured in MT1-MMP act inh; calls as there; RFP signal change, %; measured here: RFP expression control read;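 0 = vehicle wells; hits needed this value within 50% of zero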
* = called active by the depositor; i = inactive; · = not tested or not shown; + = active, no number; & = joins results of further samples; [ ] = remark or other dose.

SMILES	PABP polyA inh	eIF4H FP inh	Rce1 inh	CSC inhib	HIV Env fusion	MT1-MMP act inh	MT1-MMP act inh RFP	UUG fidelity	others
COc1cccc(Nc2ncnc3ccc(Br)cc23)c1	·	·	·	·	10	-13	-14	-10
Cc1ccc(C)c(C(C)NC(=O)C2C3CCC(O3)C2C(=O)O)c1 (centres undefined)	7	6	i	-2	·	·	·	·
COc1ccc(-c2noc(CCCC(=O)NCCc3ccccc3)n2)cc1OC	-4	0	i	·	-46	2	-1	-1
CCOP(=O)(/C(C#N)=C(\C)O)c1ccccc1 (centres undefined)	9	3	·	-13	13	0	4	·
O=C(Cn1cc(COc2ccc3ccccc3c2)nn1)NS(=O)(=O)c1cccc(OC(F)F)c1	·	·	·	·	-2	-9	3	-7
C=C(C)Cn1c(CCNC(=O)CC)nc2ccccc21	7	-4	i	-14	-21	3	4	-18
CCOC(=O)N1CCN(C(=O)C(NC(=O)c2ccc(C(C)(C)C)cc2)C(C)C)CC1 (centres undefined)	·	·	·	-2	11	2	-3	5
COC(=O)C1=C(Nc2ccccc2NC(=O)c2ccccc2C(=O)O)CSC1	12	20	i	-7	-29	0	3	-6
Cc1ccc(NC(=O)Nc2cccn(Cc3c(F)cccc3Cl)c2=O)cc1	3	-10	i	-14	-2	-35	-40	·
CCN(CC)C(=O)Cn1nnc(-c2ccc(S(C)(=O)=O)cc2)n1	16	5	·	-16	5	-3	-6	·
COc1ccc(N(CC(=O)NC2CCCC2)S(=O)(=O)c2c(C)[nH]c(=O)[nH]c2=O)cc1	2	8	i	16	-7	12	-3	-6
O=C(CC1C(=O)NCCN1C(=O)Nc1ccccc1)Nc1cc(Cl)cc(Cl)c1 (centres undefined)	-3	1	i	17	-5	1	6	5
CCc1sc(C(=O)NCCCn2ccnc2)cc1Br	2	-6	i	·	-1	8	0	1
COc1cccc(N=NC2C(=O)N(C(N)=S)N=C2C)c1 (centres undefined)	·	·	i	11	-30	8	6	·
CC(=O)Nc1ccc(N=Nc2ccccc2)cc1	-2	5	i	·	-385	2	7	·
O=c1[nH]c2cccc(F)c2n2cccc12	-5	2	i	-6	6	0	7	7
COCCSc1ccccc1C(=O)NCc1ccc2c(c1)OCO2	-5	-5	·	-6	-117	-10	-10	-14
COc1cccc(CNC(=O)COC(=O)CN(C)S(=O)(=O)c2ccc(NC(C)=O)cc2)c1	5	-6	i	-7	·	1	3	-13
CC1=C(C)/C(=N\OC(=O)/C=C/c2ccccc2)C=CC1=O	-1	-12	i	7	·	-4	-1	-23
COCCN(C(=S)Nc1ccc(OC)cc1)C(C)c1cccs1 (centres undefined)	1	-6	i	17	14	-5	5	-17
Cc1sc(NC(=O)CSc2nnc(COc3ccccc3)n2C)c(C#N)c1C	1	1	i	-9	13	2	1	·
O=C(NCC1CCCO1)C(c1cccnc1)N(C(=O)Cc1cccs1)c1cccnc1 (centres undefined)	-1	2	i	4	·	-2	0	-10
O=C(Nc1ccc(N2C(=O)CCC2=O)cc1Cl)c1cccs1	3	0	i	·	-26	0	-3	·
COC(=O)c1ccc(NC(=O)c2ccccc2N(C)S(=O)(=O)c2ccccc2)cc1	12	0	i	37	·	-3	-2	6
CC(C)C(C=Cc1ccccc1)=NNS(=O)(=O)c1ccccc1	·	·	·	·	-18	1	-6	-17

A draw from above in order of SMILES length, smallest number first:
SMILES	PABP polyA inh	eIF4H FP inh	Rce1 inh	CSC inhib	HIV Env fusion	MT1-MMP act inh	MT1-MMP act inh RFP	UUG fidelity	others
CCOP(=O)(/C(C#N)=C(\C)O)c1ccccc1 (centres undefined)	9	3	·	-13	13	0	4	·
COCCSc1ccccc1C(=O)NCc1ccc2c(c1)OCO2	-5	-5	·	-6	-117	-10	-10	-14
CC1=C(C)/C(=N\OC(=O)/C=C/c2ccccc2)C=CC1=O	-1	-12	i	7	·	-4	-1	-23

Back to the main list, starting 7 compounds before the break.
SMILES	PABP polyA inh	eIF4H FP inh	Rce1 inh	CSC inhib	HIV Env fusion	MT1-MMP act inh	MT1-MMP act inh RFP	UUG fidelity	others
CC1=C(C)/C(=N\OC(=O)/C=C/c2ccccc2)C=CC1=O	-1	-12	i	7	·	-4	-1	-23
COCCN(C(=S)Nc1ccc(OC)cc1)C(C)c1cccs1 (centres undefined)	1	-6	i	17	14	-5	5	-17
Cc1sc(NC(=O)CSc2nnc(COc3ccccc3)n2C)c(C#N)c1C	1	1	i	-9	13	2	1	·
O=C(NCC1CCCO1)C(c1cccnc1)N(C(=O)Cc1cccs1)c1cccnc1 (centres undefined)	-1	2	i	4	·	-2	0	-10
O=C(Nc1ccc(N2C(=O)CCC2=O)cc1Cl)c1cccs1	3	0	i	·	-26	0	-3	·
COC(=O)c1ccc(NC(=O)c2ccccc2N(C)S(=O)(=O)c2ccccc2)cc1	12	0	i	37	·	-3	-2	6
CC(C)C(C=Cc1ccccc1)=NNS(=O)(=O)c1ccccc1	·	·	·	·	-18	1	-6	-17
COc1ccccc1NC(=O)COC(=O)c1c(C)nn(-c2ccccc2)c1C	·	·	·	·	-30	0	-9	-6
O=C(c1ccc(COc2ccc(Br)cc2)o1)N1N=C(C(F)F)CC1(O)C(F)F (centres undefined)	-9	6	i	-21	12	4	-5	·
COc1cc(-c2nc3cnccn3c2Nc2ccccc2)ccc1O	-14	3	i	4	-35	6	5	-14
COc1ccc2oc(-c3ccncc3)cc(=O)c2c1	·	·	·	·	30	-1	2	-13
COc1cccc(CNC(=O)CC(NC(=O)c2ccccc2)c2ccccc2)c1 (centres undefined)	·	·	i	-3	-16	2	-2	-17
CCOC(=O)c1cnc2ccccc2c1NCCc1ccc(OC)c(OC)c1	3	-4	i	-4	51	-6	-6	-17
CC1CC1C(=O)N(CCC1=CCCCC1)c1c(N)n(Cc2ccccc2)c(=O)[nH]c1=O (centres undefined)	·	·	i	-5	13	0	0	·
NC(=O)c1ccc(N2CCCCC2)c(N2C(=O)CCC2=O)c1	0	7	i	5	·	4	5	-4
CC(C)(C)OC(=O)NCCCCCc1cn([C@@H](CO)C(=O)NCCCCCCCCCCC(=O)N2CCN(C(=O)OC(C)(C)C)CC2)nn1	·	·	·	18	31	1	-33	11
COc1ccccc1S(=O)(=O)N(C)C[C@@H]1OCc2cnnn2CCCC(=O)N([C@H](C)CO)C[C@H]1C	·	·	·	·	14	1	5	-18&3
CCOc1cccc(CN(C)CC2CCCN(CCc3ccc(Cl)cc3)C2)c1O (centres undefined)	-1	-2	i	30	16	10	12	-5
Cc1ccc(CC(=O)N2CCN(c3cccc(C(F)(F)F)c3)CC2)cc1	-7	5	i	·	·	2	-4	-2
COc1ccc2oc(C(F)(F)C(F)F)cc(=O)c2c1	6	4	i	-5	·	4	2	3
Cc1ccc(NC(=O)C2(NC(=O)c3ccccn3)CCCCC2)cc1Br	-5	-3	i	-13	·	-11	-6	-9
Cc1cc(NC(=O)COC(=O)C2CCN(S(=O)(=O)c3cccc(Cl)c3Cl)CC2)no1	-8	-8	i	0	·	0	5	·
COc1ccc(N=C2NC(=O)/C(=C/c3ccco3)S2)cc1	26	66*	i	9	-21	-4	0	1	eIF4H FP inh retest=92*;PABP polyA inh retest=38
CCOc1ccc(NCC(=O)Nc2ccc(C)cc2C)cc1	-2	1	i	5	·	3	-2	-8
Cc1nn(CC(=O)N2CCN(C34CC5CC(CC(C5)C3)C4)CC2)c(C)c1[N+](=O)[O-]	-6	1	i	-8	0	-2	1	-15
C[C@H](CO)N1C[C@H](C)[C@@H](CN(C)Cc2ccc(Cl)c(Cl)c2)Oc2c(NC(=O)c3ccncc3)cccc2C1=O	·	·	·	2	-11[16.7 µM]	-5	-6	4&-16
Cc1nnc(NC(=O)C2CCCC2)s1	-7	-8	i	-1	-1	3	0	-17
CCN(CC(=O)NC(C)C)C(=O)CCNC(=O)c1ccc(Cl)cc1	-14	1	i	-6	-11	2	-4	-15
CCOC(=O)Cc1csc(N/C(=N/S(=O)(=O)c2ccc(F)cc2F)c2ccccc2)n1	-6	-2	i	-1	·	-2	3	·
CC1CCN(C(=O)CSc2nnc3ccc(-c4cccnc4)nn23)CC1	·	·	i	-4	8	2	2	-24
COc1cc(CCC(=O)Nc2cc(S(=O)(=O)N3CCOCC3)ccc2OC(C)C)cc(OC)c1OC	·	·	·	·	-18	-1	2	1
FCCCOc1ccc(-c2nccc(-c3ccc(Cl)cc3)n2)cc1	2	-3	i	·	·	1	0	-8

In the list so far, 3 contain an NH in an aromatic ring.
SMILES	PABP polyA inh	eIF4H FP inh	Rce1 inh	CSC inhib	HIV Env fusion	MT1-MMP act inh	MT1-MMP act inh RFP	UUG fidelity	others
COc1ccc(N(CC(=O)NC2CCCC2)S(=O)(=O)c2c(C)[nH]c(=O)[nH]c2=O)cc1	2	8	i	16	-7	12	-3	-6
O=c1[nH]c2cccc(F)c2n2cccc12	-5	2	i	-6	6	0	7	7
CC1CC1C(=O)N(CCC1=CCCCC1)c1c(N)n(Cc2ccccc2)c(=O)[nH]c1=O (centres undefined)	·	·	i	-5	13	0	0	·

New compounds follow
SMILES	PABP polyA inh	eIF4H FP inh	Rce1 inh	CSC inhib	HIV Env fusion	MT1-MMP act inh	MT1-MMP act inh RFP	UUG fidelity	others
O=C(Nc1ccccc1O)c1ccc(Cl)cc1	-4	-11	i	16	-21	7	11	-20
Cc1nc2sc(C(c3cccs3)N3CCN(c4cccc(Cl)c4)CC3)c(O)n2n1 (centres undefined)	1	-1	i	-4	-29	-1	-5	7
CCOC(=O)CSc1nc(C)cc(C)c1C#N	-4	-5	i	-16	·	-1	2	-7
CN(C)c1nc(N)nc(CSc2nnnn2-c2ccc(Cl)cc2)n1	·	·	·	·	1	0	0	14&-10
O=C(NNC(=O)C1CC1)c1cc(Cl)nc2ccccc12	-7	-11	i	-28	·	-3	2	-8
N#Cc1cccc(NC(=O)c2cc(C3CCCCN3S(=O)(=O)c3ccccc3)on2)c1 (centres undefined)	·	·	·	·	-10	0	-7	-12
Cc1nn(CC(=O)NC2CCCCC2)c(=O)c2cccn12	2	-14	i	0	-8	1	3	-17
COc1ccc(S(=O)(=O)N(CCCN2CCCC2=O)Cc2cc3c(C)ccc(C)c3[nH]c2=O)cc1	-5	6	i	6	·	2	4	·
CCOC(=O)Cc1csc(NC(=O)Nc2ccccc2)n1	17	-9	i	-9	30	1	-7	-5
Cc1ccc(-c2csc(N3CCN(c4cc5c(cc4Cl)nc(-c4ccncc4)n5CCOCCO)CC3)n2)cc1	-14	-7	+	10	·	0	-7	-7
O=C(/C=C/c1ccccc1)NC(=S)Nc1ccc(N2CCOCC2)cc1	-10	-1	·	5	-18	-6	-4	·
CCC(=O)N1CCCC(C(=O)c2ccc(-c3ccccc3)cc2)C1 (centres undefined)	-2	3	i	-6	1	0	-3	5
Cc1nc(C(=O)O)nn1-c1cc(Cl)ccc1Cl	0	-3	i	-9	-7	-2	4	·
O=C(c1ccc(Cl)cc1Cl)N1CCC(C(=O)N2CCOCC2)CC1	17	-5	i	-5	3	-3	0	-11
O=[N+]([O-])c1ccc(Cc2ccncc2)cc1	-9	-6	i	-9	18	0	-2	·
Cc1ccc(NC(=O)Nc2ccc3c(c2)nc(C)n3C)cc1	-16	-14	i	2	-29	4	3	·
COc1ccc(N(C(=O)c2snc(C(N)=O)c2N)C(C(=O)NC2CCCC2)c2ccc(C)o2)c(OC)c1 (centres undefined)	3	-12	i	·	-14	2	3	-3
